Compound activity (PubChem)
CSC inhib = cancer stem cell viability inhibitors, primary screen, luminescence | AID 2717, 2010 | cancer stem cell-like cells viability | 300,000 compounds, 1.1% hits | inhibition, % at 7.5 µM;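 active = mean at 75% or more and at least half the replicates too; inconclusive = mean and replicates disagree; tested in HMLE shEcad cells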;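 note: 0% = median of negative and 100% = median of positive control wells; the first replicate is given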
MT1-MMP act inh = blockers of MT1-MMP proenzyme processing, primary screen, HT1080 RFP-PRO-GFP cells, GFP/RFP fluorescence | Matrix metalloproteinase-14 (Homo sapiens), P50281 | GFP/RFP ratio fluorescence, overnight; percent of plate control window, DMSO zero | GFP/RFP ratio change, % at 20 µM | 360,000 compounds, 0.061% hits | AID 651647, 2012;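 active = GFP/RFP ratio change of at least 30% with cell ATP level not reduced by more than half and red fluorescence within 50% of control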; note: strong numbers were not always called active
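Assay system – RFP-PRO-GFP reporter HT1080 cells · Compound dosing – single dose of 20 µM compound, 1% DMSO final · Incubation – overnight compound exposure at 37 °C · Measure – GFP/RFP fluorescence ratio · Benchmarks – DMSO wells and RFP-L50D-GFP cells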
eIF4H inh = human eIF4H binding inhibitors, primary screen, translation initiation inhibitor project, biochemical, uHTS, fluorescence polarization. Eukaryotic translation initiation factor 4H (Homo sapiens), Q15056. eIF4H fluorescence polarization binding assay. 290,000 compounds, 0.94% hits. inhibition, % at 35 µM;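 active = 50% or more with normal probe brightness, or confirmed in later tests; inconclusive = above 50% with abnormal brightness, or retests that disagree; inactive = below 50% or failed in later tests; about a fifth of its hits are not listed in these tables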;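 note: calls also rest on retests at 20 µM and on dose response follow-up; 0% = protein and probe with vehicle and 100% = probe without protein; strong numbers were not always called active; many hits fall short of the cut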
HIV Env fusion = inhibitors of HIV-1 Env-driven cell-cell fusion, primary screen, HeLa-JRFL effector, CEM21 target cells, luciferase. inhibition, % at 12.3 µM. 360,000 compounds, 1.1% hits;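 active = mean replicate inhibition score of at least 50 and every replicate individually at or above 50; inconclusive = only one of the two criteria met; inactive = mean below 50 and not all replicates reaching 50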;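 note: 0% = plate neutral controls and 100% = maraviroc near 300 nM; one replicate is shown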
Yeast UUG start = modulators of yeast start codon fidelity, primary screen, whole organism, S. cerevisiae, single point, plate reader. activity score, % at 18.7 µM. S. cerevisiae UUG-firefly luciferase reporter, luminescence/redox ratio. 350,000 compounds, 0.13% hits;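 active = replicate mean at a twofold rise or more, about +100% in these data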;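 note: firefly luciferase made from a UUG start codon reports start codon fidelity; reporter light over untreated wells divided by growth signal over untreated wells; some hits fall short of that in this replicate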
PABP polyA inh = PABP poly(A) RNA binding inhibitors, primary screen, biochemical, fluorescence polarization, uHTS; inhibition, % at 35 µM; 290,000 compounds, 1% hits; AID 2014, 2009; Polyadenylate-binding protein 1 (Homo sapiens), P11940;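 active = 50% or more with normal probe brightness, or confirmed in later tests; inconclusive = above 50% with abnormal brightness, or retests that disagree; inactive = below 50% or failed in later tests; about a fifth of its hits are not listed in these tables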;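 note: calls also rest on retests at 20 µM and on dose response follow-up; controls were probe without protein and protein plus probe with vehicle; some compounds called inactive have numbers as strong as hits; many hits fall short of the cut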
Target sequence (P11940 whole entry, looked up): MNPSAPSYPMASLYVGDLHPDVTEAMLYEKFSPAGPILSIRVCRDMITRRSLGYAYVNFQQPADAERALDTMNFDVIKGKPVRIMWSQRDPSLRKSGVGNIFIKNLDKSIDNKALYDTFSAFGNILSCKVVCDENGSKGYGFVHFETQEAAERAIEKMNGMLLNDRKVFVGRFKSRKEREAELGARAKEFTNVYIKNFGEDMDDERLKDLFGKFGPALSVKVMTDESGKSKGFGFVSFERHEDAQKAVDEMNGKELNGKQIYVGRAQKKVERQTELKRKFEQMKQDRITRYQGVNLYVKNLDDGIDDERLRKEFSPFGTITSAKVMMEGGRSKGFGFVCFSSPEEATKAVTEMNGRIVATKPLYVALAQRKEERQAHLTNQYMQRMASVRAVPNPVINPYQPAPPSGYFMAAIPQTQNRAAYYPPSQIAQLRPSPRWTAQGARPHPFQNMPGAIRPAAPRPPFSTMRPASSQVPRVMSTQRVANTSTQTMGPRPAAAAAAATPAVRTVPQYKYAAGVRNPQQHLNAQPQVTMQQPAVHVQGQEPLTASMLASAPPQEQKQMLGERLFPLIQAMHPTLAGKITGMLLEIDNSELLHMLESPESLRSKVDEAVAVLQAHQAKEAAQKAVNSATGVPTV
Rce1 inh = yeast Rce1p protease inhibitors, primary screen, biochemical, fluorescence, cell-free homogeneous | yeast membranes, quenched prenylated peptide cleavage fluorescence | 290,000 compounds, 0.27% hits | calls only | CAAX prenyl protease 2 (Saccharomyces cerevisiae (strain ATCC 204508 / S288c)), Q03530;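 active = fall in fluorescence gain of 50% or more versus controls, with final raw signal at or below 3038400; inconclusive = same 50% fall but final raw signal above 3038400; inactive = fall in fluorescence gain under 50%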;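 note: plate controls were neutral control wells for no effect and wells lacking membranes for full effect; tested at 10 µM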
eIF4H inh retest = second read-out of eIF4H inh, no call of its own (marks repeat the call); inhibition, %; compound at 20 µM; confirmation average;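 mean of two retest wells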
PABP polyA inh retest = recorded beside PABP polyA inh, whose call it bears; inhibition, %; compound at 20 µM; confirmation repeats;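 mean of two retest wells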
MT1-MMP act inh RFP = also measured in MT1-MMP act inh; calls as there; RFP signal change, %; measured here: RFP expression control read;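 0 = vehicle wells; hits needed this value within 50% of zero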
An asterisk follows results filed as active; i = inactive; u = inconclusive; x = not tested or not shown. Not all compounds are listed; the hit share may differ from the screen's.

SMILES	CSC inhib	MT1-MMP act inh	MT1-MMP act inh RFP	eIF4H inh	HIV Env fusion	Yeast UUG start	PABP polyA inh	Rce1 inh	others
CCN(CC)CCNC(=S)Nc1ccc2nc(N3CCN(CC)CC3)cc(C)c2c1	-2	7	6	10	0	-18	31	i
COC(=O)/C=C/c1cc(F)ccc1S(=O)(=O)NC(C)(C)C	x	2	-2	x	15	-12	x	i
C[n+]1ccn(CC(=O)c2cccs2)c1	-10	1	-3	-6	-4	-38	-10	i
CCSc1nnc2ccc(-c3ccco3)nn12	-2	3	3	-7	11	x	-22	i
N#CC12C(N)=NC3(OCCO3)C1(C#N)C1=C(CCC1)NC2c1ccccc1 (stereo not drawn)	-9	-8	3	33	x	x	34	i
CCOc1ccc(N(CC(=O)NCCc2ccccc2)C(=O)c2csnn2)cc1	-7	1	-1	6	-2	-4	-2	i
O=C(CSc1nnc(-c2ccco2)o1)c1ccccc1Cl	x	0	0	-2	-11	x	10	i
O=C(O)C1C2C=CC(O2)C1C(=O)NC1CCCc2ccccc21 (stereo not drawn)	7	3	6	8	x	x	3	i
COc1cccc(NC(=O)NC2CC(=O)N(c3ccc4c(c3)OCCO4)C2)c1 (stereo not drawn)	-14	2	6	x	1	-20	x	i
CC(C)C(OC(=O)c1cccs1)C(=O)NCCc1ccccc1 (stereo not drawn)	-5	1	5	-5	-6	-10	18	i
Cc1ccc(-c2noc(CN3CCN(C(c4ccccc4)c4ccccc4)CC3)n2)cc1	33	-8	-6	-6	24	-3	-5	i
CC(=O)Nc1ccc(S(=O)(=O)NCC2CCC(C(=O)N3CCCCCC3)CC2)cc1 (stereo not drawn)	1	0	-8	8	x	-3	7	i
CC(C)c1ccc(-n2cccc2/C=C2/C(=N)N3C=CSC3=NC2=O)cc1	27	-22	-4	0	x	-14	72	i	eIF4H inh retest=37;PABP polyA inh retest=18
O=C(NCc1ccccc1)c1cc(C2COCCN2C(=O)c2ccc(Cl)cc2)on1 (stereo not drawn)	x	0	0	x	4	12	x	x
CCOCCCNC(=S)N1CCN(c2nc(-c3ccc(F)cc3)cs2)CC1	-11	-10	-28	-3	u	-12	3	i
COc1ccc(S(=O)(=O)Nc2ccccc2-c2nnn(CC(=O)Nc3ccccc3OC)n2)cc1	35	-2	-24	0	-9	x	18	i
CCN1C(=O)[C@H]2[C@@H](c3ccc(-c4ccc(Cl)c(Cl)c4)c(OC)c3)N3CCCC[C@@]3(C(=O)OC)[C@H]2C1=O	x	-5	-7	x	18	-7	x	x
Cc1ccc(F)cc1NC(=O)CSc1n[nH]c(N)n1	-10	-2	-1	x	x	-8	x	x
Cc1cccc(C(=O)OCC(=O)Nc2c(C)n(C)n(-c3ccccc3)c2=O)c1O	-8	6	0	x	-2	-3	x	x
N#Cc1ccc(C23CC4(C2)[C@H](CN(Cc2ccc(-c5ccccc5)cc2)[C@@H]4c2ccccc2)C3c2ccccc2)cc1 (stereo partly drawn)	11	-2	0	-1	-2	-17	-11	i
CC(=O)c1cccc(OCC(O)CNCC2CCCCC2)c1 (stereo not drawn)	1	-5	1	5	-5	-11	17	i
CC1CN(S(=O)(=O)c2cccc(C(=O)Nc3ccc(N4CCCCC4)cc3)c2)CC(C)O1 (stereo not drawn)	x	1	2	x	1	-7	x	x
CC(/C=C/c1ccco1)=N/NC(=O)OC(C)(C)C	-7	-3	4	23	-5	x	-2	x
C=CCc1c(Cl)nc(C)nc1NCc1ccccc1	-8	-4	-15	4	59*	-28	-6	i
O=C(CCNC(=O)N1CC(=O)Nc2ccccc21)NCCc1ccc(Cl)cc1	x	0	5	x	-12	-11	x	x

(list continues)
SMILES	CSC inhib	MT1-MMP act inh	MT1-MMP act inh RFP	eIF4H inh	HIV Env fusion	Yeast UUG start	PABP polyA inh	Rce1 inh	others
O=C(NCc1cccs1)C1CC(c2ccc(F)cc2)=NO1 (stereo not drawn)	29	1	6	0	-41	-13	-9	x
Cc1ccc(CCNC(=O)CCS(=O)(=O)c2ccc3nc(C)sc3c2)cc1	-24	1	-3	-6	-2	-14	-4	i
CCN(CC)c1cccc(OC2=NS(=O)(=O)c3ccccc32)c1	-11	72	92	58*	-13	-12	35	i	eIF4H inh retest=57*;PABP polyA inh retest=43
COc1ccc(N2C(=O)CCC2(C(N)=O)c2ccccc2)cc1 (stereo not drawn)	-12	4	3	2	x	x	1	i
Cc1cccc(-c2nc(CS(=O)CC(=O)N3CCCCC3)c(C)o2)c1 (stereo not drawn)	x	2	5	-3	20	13	3	i
COc1ccc(CCNC(=O)c2ccc(NS(=O)(=O)c3ccc4[nH]c(=O)[nH]c4c3)cc2)cc1	-9	-2	6	x	1	x	x	i
CCOc1ccc2nc(NC(=O)c3cnccn3)sc2c1	-21	4	4	5	x	9	-1	i
O=C(NNC(=O)c1ccc2[nH]c(=O)c(=O)[nH]c2c1)c1cccc(Br)c1	-4	-1	1	18	-1	x	9	i
C/C(=N\NS(=O)(=O)c1ccc(Cl)cc1)c1ccc(O)cc1	-8	0	2	-6	x	x	0	x
CC1CCN(C(=O)COC(=O)c2cc(Cl)cc(Cl)c2N)CC1	-7	0	-1	-1	x	-9	-6	i
Cc1ccc(OCCSCc2nnc(NC(=O)Nc3cccc(Cl)c3)s2)cc1	51	-27	-38	-12	x	x	3	i
O/N=C1/CCc2cccc3cccc1c23	-5	-17	-3	62*	0	-9	82*	i
CC(C)Sc1ccc(C(=O)Nc2ccc(F)cc2F)cn1	-5	x	x	-3	-20	x	-9	i
COCC(C)NC(=O)c1oc2c(c1C)C1(CCC2)SCCS1 (stereo not drawn)	42	5	4	7	8	x	-8	i
O=C1c2ccccc2S(=O)(=O)c2cc(C(=O)N3CCN(c4ncccn4)CC3)ccc21	-16	-4	2	x	20	-16	x	i
COC(=O)c1cc(S(=O)(=O)C(C)C)c(S(C)=O)s1 (stereo not drawn)	8	-2	-9	-7	38	-10	12	i
CCc1nc(SCC(=O)Nc2ccccc2OC)c2c(C)c(C)sc2n1	27	-3	-3	-5	23	-15	-1	i
COc1ccc(OC)c(N(C(=O)c2snc(C(N)=O)c2N)C(C(=O)NCc2ccccc2)c2ccc(O)cc2)c1 (stereo not drawn)	13	-3	-5	-8	-6	-5	3	i
O=C(c1ccc(F)cc1)N1CCCC(c2ccccc2)C1 (stereo not drawn)	-3	-2	-2	-9	18	x	-2	i
Cc1sc(NC(=O)COc2cccc(-n3cnnn3)c2)c(C#N)c1C	2	8	-1	-7	-81	-9	-3	i
COc1ccc(NC(=O)CCCN2C(=O)CCC2=O)cc1Cl	-6	3	3	2	x	-7	-11	i
CSCCC(NC(=O)c1ccc(Cl)cc1Cl)C(=O)NCc1ccncc1 (stereo not drawn)	-5	-1	1	x	1	x	x	i
O=C(CN(C(=O)CCC(=O)Nc1nccs1)c1ccc2c(c1)OCO2)NCc1ccc(F)cc1	-7	1	4	6	8	-2	4	x
Cc1ccc(S(=O)(=O)Nc2cc3c4c(c2)CC(=O)N4CCC3)cc1	4	-4	-3	x	3	-6	x	i
CCOC(=O)C1=C(c2ccccc2)OC(N)=C(C#N)C1c1cccnc1 (stereo not drawn)	-15	3	0	-12	-17	-18	-5	i

(more compounds)
SMILES	CSC inhib	MT1-MMP act inh	MT1-MMP act inh RFP	eIF4H inh	HIV Env fusion	Yeast UUG start	PABP polyA inh	Rce1 inh	others
O=[N+]([O-])c1ccc(Oc2ccc(S(=O)(=O)N3CCCCC3)cc2)cc1	-18	-7	-26	6	x	x	-10	i
O=C(CSc1nnc(-c2ccco2)o1)NCC(=O)c1ccccc1	0	-5	-2	2	-47	-12	-3	i
COC(=O)c1ccc(NC(=O)COc2cccc3c2OC(C)(C)C3)cc1	-14	2	0	x	1	10	x	i
O=C(Cc1ccccc1[N+](=O)[O-])N1CCN(c2ccccc2F)CC1	-13	-1	1	3	15	x	-6	i
CCC(=O)N1CCc2cc(S(=O)(=O)NCCc3ccc(S(N)(=O)=O)cc3)ccc21	7	3	4	-8	5	-11	5	i
CCOC(=O)CC1(C)NC(=O)c2c(C)sc(C(=O)OCC)c2N1 (stereo not drawn)	-5	-4	-2	10	x	x	2	i
CCc1ccc(S(=O)(=O)NCc2cn3cccc(C)c3n2)s1	-11	-2	-14	-15	x	-11	-2	i
Cc1cccc(OCc2cc(-c3ccccc3)no2)c1C	18	1	2	-10	-19	x	-6	i
Cn1c(=O)cc(C(=O)N/N=C/c2ccc(F)cc2)[nH]c1=O	-3	-5	4	0	13	-2	-11	i
Cc1cc(N2CCOCC2)c2c(N)c(Br)cc(C)c2n1	8	-18	-5	5	x	-12	7	i
Cc1cc(NC(=O)CCCC(=O)NCc2ccccc2)no1	-4	-6	-5	4	-17	x	-1	i
C=CCS(=O)(=O)N1CCCC(C(=O)c2cccc(Cl)c2)C1 (stereo not drawn)	27	1	2	-1	4	-12	-16	i
C=CCN(C(=O)CCC(=O)Nc1cc(C)on1)C(C(=O)NC1CCCC1)c1ccc(C)cc1 (stereo not drawn)	3	-3	3	0	7	7	-7	i
O=C(Nc1nccs1)c1nc[nH]c1C(=O)N1CCN(c2ccccc2)CC1	x	3	5	x	3	-2	x	x

In the list so far, eight have two or more sulfur atoms:
SMILES	CSC inhib	MT1-MMP act inh	MT1-MMP act inh RFP	eIF4H inh	HIV Env fusion	Yeast UUG start	PABP polyA inh	Rce1 inh	others
CCOCCCNC(=S)N1CCN(c2nc(-c3ccc(F)cc3)cs2)CC1	-11	-10	-28	-3	u	-12	3	i
Cc1ccc(CCNC(=O)CCS(=O)(=O)c2ccc3nc(C)sc3c2)cc1	-24	1	-3	-6	-2	-14	-4	i
Cc1ccc(OCCSCc2nnc(NC(=O)Nc3cccc(Cl)c3)s2)cc1	51	-27	-38	-12	x	x	3	i
COCC(C)NC(=O)c1oc2c(c1C)C1(CCC2)SCCS1 (stereo not drawn)	42	5	4	7	8	x	-8	i
COC(=O)c1cc(S(=O)(=O)C(C)C)c(S(C)=O)s1 (stereo not drawn)	8	-2	-9	-7	38	-10	12	i
CCc1nc(SCC(=O)Nc2ccccc2OC)c2c(C)c(C)sc2n1	27	-3	-3	-5	23	-15	-1	i
CCC(=O)N1CCc2cc(S(=O)(=O)NCCc3ccc(S(N)(=O)=O)cc3)ccc21	7	3	4	-8	5	-11	5	i
CCc1ccc(S(=O)(=O)NCc2cn3cccc(C)c3n2)s1	-11	-2	-14	-15	x	-11	-2	i
